Screens as filed in PubChem BioAssay.
2A Renilla: FMDV 2A StopGo reporter, Renilla signal | HEK cells with a luciferase reporter of 2A StopGo recoding | AID 1745857 | Potency, µM (top dose mostly 57.5 µM), without a hit: at the highest dose signal change, negative = less light | 120,000 compounds, 0.32% hits; active means well fitted falling curve with a large enough effect; inconclusive means small, poorly fitted or top-dose-only effect; inactive means no such curve, though single readings can be large or run the other way; note: nearly all actives have a fitted effect of over 55% in size; overnight with compound
StopGo FLuc: FMDV 2A StopGo reporter, firefly signal | HEK cells with a luciferase reporter of 2A StopGo recoding | Potency, µM (titrated, usually from 57.5 µM), inactives show at the highest dose signal change, negative = less light | 120,000 compounds, 0.23% hits; active = well fitted falling curve with a large enough effect; inconclusive = small, poorly fitted or top-dose-only effect; inactive = no such curve, though single readings can be large or run the other way; note: nearly all actives have a fitted effect of over 60% in size; overnight with compound
Active calls of the source: *; ? = inconclusive; [ ] = dose if it differs, or a comment. % is set by controls: 0 for no effect and ±100 for the full control effect; potency is the fitted concentration of half-maximal effect.

SMILES	2A Renilla	StopGo FLuc
CCc1cccc(C)c1NC(=O)CC(C)(C(=O)O)c1ccccc1 (stereo not given)	14.8%	20.1%
CCCN1CCC(NC(=O)C23CC4CC(CC(C4)C2)C3)CC1	-14.5%	0.4%
CS(=O)(=O)c1ccc(OCCOc2ccc(F)cc2)cc1	1.3%	13.4%
COC(=O)Cc1c(C)nc2nc(NCc3ccc(Br)cc3)[nH]n2c1=O	-4.3%	-10.5%
CCCCCCNCc1ccc(C)s1	1.2%	-5.0%
Cc1c(Cl)cccc1-n1ncc(C(=O)N2CCC(C)CC2)c1C1CCN(C(=O)OC(C)(C)C)CC1	21.8%	-16.0%
CCOc1ccc(NC(=O)Cn2cc(C(=O)c3ccc(C)c(C)c3)c(=O)c3cc(F)ccc32)cc1	-10.6%	-15.4%
COc1ccc(C)cc1NS(=O)(=O)c1ccc2[nH]c(=O)c(=O)[nH]c2c1	-12.2%	-17.7%
CCCCn1c(=O)[nH]c(=O)c2c1nc(COC(=O)C1CC1)n2C	-3.8%	-4.0%
CCc1ccc(-c2csc(Nc3cccc(C)n3)n2)cc1	?	89.2%[activator]
CC1C(c2cccs2)=[N+]([O-])C(C)(c2ccc(Br)cc2)N1O (stereo not given)	22.2%[1.06 µM]	17.1%
COc1cccc(-c2nc(CSc3nc(C)cc(=O)[nH]3)c(C)o2)c1OC	67.1%[activator]	78.7%[activator]
COC(=O)c1ccccc1NC(=O)CCCn1nc(C)c2c(C)n(-c3ccccc3)nc2c1=O	?	-12.8%
C[N+](C)(N)CC(=O)[O-]	-9.0%	-0.6%
COCCCNC(=O)c1ccc(-n2c(-c3ccccc3)cc3c2CCC(C)C3)cc1 (stereo not given)	16.0%	14.6%
CC(Oc1ccccc1F)C(=O)Nc1c(F)cccc1F (stereo not given)	-12.0%	-5.6%
O=C1CC(c2ccc(F)cc2)c2c(c3ccccc3[nH]c2=O)O1 (stereo not given)	-6.5%	13.8%
CCN(CC)CCCNC(=O)c1ccc2c(=O)n(CCc3ccccc3)c(=O)[nH]c2c1	-8.4%	13.7%
C(=N\N=C(c1ccccc1)c1ccccc1)/c1c[nH]c2ccccc12	17.8%	0.0%
Cc1nc2nc(NCc3cc(F)cc(F)c3)[nH]n2c(=O)c1CCO	8.3%	23.1%
CCOC(C)C(=O)NN (stereo not given)	11.2%	29.0%
CN1CCc2c(sc(NC(=O)Nc3ccc(Cl)cc3)c2C(N)=O)C1	-1.9%	46.7%[activator]
Cc1ccccc1C(=O)NC1(C(F)(F)F)N=C(c2ccccc2)N(C2CCCCC2)C1=O (stereo not given)	-1.3%	-22.9%
CCc1ccc2c(c1)NC(c1cccnc1)=NC(c1ccc(C(C)(C)C)cc1)=N2	56.6%[activator]	5.8%
COc1ccc2cc(C(=O)NCCCN3CCCC3=O)c(C)nc2c1	-4.6%	20.6%
COC(=O)CCNC(=O)c1ccc(C#N)cc1	7.6%	21.6%
O=C(COc1ccc2ccc(=O)oc2c1)Nc1ccc(F)c(F)c1	1.9%	18.0%
Oc1ccc(C2(c3cccc(Cl)c3)CCCCC2)cc1	1.9%	15.2%
O=C(COc1ccc2ccccc2c1)NCc1ccccc1CN1CCCC1	-14.5%	-15.0%
CC1=C(C(=O)OCC(F)(F)F)C(c2ccc3c(c2)OCO3)NC(=O)N1 (stereo not given)	-3.5%	4.8%
CCCCn1nc(C(=O)Nc2ccc(OC)c(OCCOC)c2)c2ccccc2c1=O	-3.5%	4.7%
O=S(=O)(c1ccc(C2CCCCC2)cc1)N1CCN(c2cc(Cl)ccc2Cl)CC1	-6.5%	-2.4%
O=C(O)CNC(=O)c1ccc(NS(=O)(=O)c2cc(Cl)ccc2Cl)cc1	5.0%	14.1%
Cc1ccc(NS(=O)(=O)c2ccc3nc(-c4ccccc4)[nH]c3c2)cc1Cl	103.5%[activator]	10.1%
O=C(CN1CCN(Cc2ccccn2)CC1)Nc1cccc2nonc12	-7.0%	4.8%
Cc1cc(=O)oc2cc(OCC(=O)OCC(=O)Nc3ccc(OC(F)F)cc3)ccc12	-4.6%	-1.3%
CCCN(C(=O)C(=O)c1c[nH]c2ccccc12)c1ccc(F)cc1	98.1%[activator]	173.4%[activator]
O=C(Nc1ccc2oc(C3CC3)nc2c1)c1ccc(=O)[nH]c1	-1.8%	0.0%
COc1cccc(C(=O)N(Cc2sccc2C)C2CCS(=O)(=O)C2)c1 (stereo not given)	-6.5%	12.3%
Cc1cccc(OCC(=O)N(Cc2cccc(Cl)c2)Cc2ccco2)c1C	13.5%	21.9%
COc1ccccc1CNC(=O)CSc1nc2nc(C)c(Cc3ccccc3Cl)c(C)n2n1	-1.0%	-13.8%
O=C(Cn1c(-c2cccs2)cc2cc(Cl)ccc21)N1CCCCC1	42.9%[activator]	-17.0%
CC(NC(=O)c1cnccn1)c1ccncc1 (stereo not given)	-3.0%	2.5%
COc1ccc(C(=O)NC2CCCC2)cc1OC	6.2%	16.3%
Cc1ccc(CNC(=O)Nn2cnc3ccccc32)cc1	?	-11.8%
COc1ccc(-c2nc(Cn3nnc(C(=O)Nc4ccccc4F)c3N)c(C)o2)cc1OC	21.2%	28.9%
COc1ccc(N2C(=O)C(C)(C)CS2(=O)=O)cc1S(=O)(=O)N1CCc2ccccc21	133.1%[activator]	-3.1%
Cc1ccc(-n2ncc3c(Nc4ccc5c(c4)OCCO5)ncnc32)cc1Cl	-14.0%	-7.0%
COc1ccc(-c2cc(C(=O)NCCC(=O)N3CCOCC3)c3ccccc3n2)cc1OC	37.9%[activator]	80.3%[activator]
COc1ccc2c(c1)CC(NC(=O)Nc1ccc(Br)c(C)c1)CO2 (stereo not given)	-20.2%	40.9%

New compounds follow:
SMILES	2A Renilla	StopGo FLuc
O=C(Nc1ccc(C(=O)N2CCN(c3ccc(F)cc3)CC2)cc1)c1nsc2ccccc12	-6.7%	11.1%
COc1ccc(OC)c(NC(=O)Cn2c(=O)n(Cc3nc(C)no3)c(=O)c3ccccc32)c1	-8.4%	-14.6%
Cn1c(=O)c2c(ncn2CC(=O)Nc2nc3ccccc3s2)n(C)c1=O	-2.8%	3.7%
CCN1CCN(c2nc3ccccc3nc2C(C#N)S(=O)(=O)c2ccccc2)CC1 (stereo not given)	46.4%[activator]	-5.6%
Cc1ccc(NC(=O)c2ccc3c(c2)CCC3)cc1	33.6%[activator]	50.0%[activator]
CCOC(=O)c1cc(-c2ccccc2)n(-c2cccc(C(=O)Nc3cc(OC)cc(OC)c3)c2)c1C	-14.8%	-19.7%
Cn1c(=O)[nH]c(=O)c2c1nc(SCCN1CCCCC1)n2CCc1ccccc1	-17.2%	-15.4%
Cc1ccc(-n2cnnn2)cc1NC(=O)c1cc(Cl)ccn1	-9.4%	7.0%
O=C(Cn1c(=O)c2c(ncn2C2CCCC2)n(Cc2ccccc2)c1=O)NCc1cccc(Cl)c1	-0.2%	-4.0%
N#Cc1nc(-c2ccccc2)oc1NCCCn1ccnc1	0.0%	96.5%[activator]
COc1ccc(C(=O)Nc2ccc3nc(N4CCC(C)CC4)cc(C)c3c2)cc1	-10.1%	8.5%
COC(=O)c1c(NC(=O)CCCOc2cccc(C)c2)sc2c1C(C(=O)OC)CC2 (stereo not given)	-2.6%	-17.3%
Cc1cc(N)cc(-c2nc3cc(C(C)C)ccc3o2)c1O	27.2%	281.0%[activator]
O=C(CCS(=O)(=O)c1cc2c3c(c1)CCN3C(=O)CC2)NCc1ccc(F)cc1	-8.4%	-1.0%
Cc1ccc(OCC(=O)Nc2cc(-c3cccc(C)c3)nn2-c2ccccc2)cc1	-2.2%	91.4%[activator]
COc1ccc(-c2nnc(SCC(=O)NCc3ccccc3)nc2-c2ccc(OC)c(OC)c2)cc1OC	0.0%	15.1%
COc1cc(Br)cc2cc(C(=O)N3c4ccccc4CC3C)c(=O)oc12 (stereo not given)	21.1%	-3.0%
COc1ccc(N(Cc2cccs2)C(=O)Nc2ccccc2)cc1	3.2%	-13.1%
Cc1ccc(C(=O)Nc2ccc(C(=O)OCc3cc(=O)n4c5c(sc4n3)CCCC5)cc2)cc1	-4.6%	-10.1%
Cc1ccc2nc(-c3cc(NC(=O)COc4ccc(C)c(C)c4)ccc3Cl)oc2c1	-5.0%	-3.1%
Cc1ccc(NC(=O)Cn2nnc(C(=O)NCCc3ccccc3)c2N)cc1Cl	-8.3%	-13.3%
COc1ccc2nc(NS(=O)(=O)c3ccc(Cl)cc3)c(Nc3ccc4c(c3)OCO4)nc2c1	-4.8%	12.1%
COC(=O)c1ccccc1NC(=O)N1CC(C)Oc2ccc(C)cc21 (stereo not given)	13.9%	-2.1%
CCC(C(=O)N(C)Cc1ccccc1)n1nc(C)c2sc3ccccc3c2c1=O (stereo not given)	28.8%	-22.9%
CCc1cccc(C)c1NC(=O)c1cc(S(=O)(=O)N2CCC3(CC2)OCCO3)ccc1F	102.6%[activator]	0.0%
Cc1cc(CSc2ccc3c(c2)NC(=O)CO3)no1	6.2%	0.0%
Cn1c(=O)c2c(ncn2CCNc2cccc(Cl)c2)n(C)c1=O	-0.5%	0.0%
O=C1CSc2ccc(C(=O)Nc3ccc(Oc4ccccc4)cc3)cc2N1	?	?
O=C1CCCCC1CN1CCCCC1 (stereo not given)	?	?
C[N+](C)(C)CC1CCCCC1=O (stereo not given)	0.3%	2.9%
COc1cccc(CNC(=O)c2ccc(NC(=O)N3CCCCc4ccccc43)cc2)c1	-12.1%	-11.4%
COc1ccc(CSc2nc3ccncc3n2Cc2ccccc2)cc1	-13.5%	37.4%[activator]
C=C(C)COc1cc(O)c2c(=O)cc(-c3ccccc3)oc2c1	0.4%	10.2%
CCC(C)(C)NC(=O)/C=C/c1ccc(OC)c(OC)c1	5.8%	0.0%
COc1ccc(CNC(=O)COC(=O)Cc2n[nH]c(=O)c3ccccc23)cc1	?	?
Cc1cccc(NS(=O)(=O)c2ccc(-c3coc(C)n3)cc2)c1	152.3%[activator]	-8.3%
COc1ccccc1NC(=O)CSc1oc(-c2ccco2)nc1S(=O)(=O)c1ccc(C)cc1	42.5%[activator]	-15.5%
COc1ccc(N(CC(C)C)S(=O)(=O)c2nnc(NC(=O)c3ccco3)s2)cc1	50.5%[activator]	-14.7%
Cc1ccc(S(=O)(=O)Nc2cc3c(cc2C)n(C)c(=O)c(=O)n3C)cc1	24.0%	-0.6%
CNC(=O)c1ccc(NC(=O)CN2CCc3cc(OC)c(OC)cc3C2c2ccccc2)cc1 (stereo not given)	14.2%	12.1%
COc1ccc(OC)c(NC(=O)c2cccn2-c2nnc(N3CCCCC3)s2)c1	72.8%[activator]	-5.9%
Cn1c(C(C#N)(CC(=O)N2CCCCC2)CC(=O)N2CCCCC2)nc2ccccc21	98.2%[activator]	-7.1%
CCNC(=S)NCC12CC3CC(CC(C3)C1)C2	108.4%[activator]	1.5%
CCCNC(=O)C(C)NC(=O)c1cc(C)nc2ccccc12 (stereo not given)	9.4%	21.5%
O=S(=O)(c1ccc(-c2cnc(C3CC3)o2)cc1)N1CCN(c2cccc(Cl)c2)CC1	36.4%[activator]	19.9%
C/C(=N/NC(=S)NCc1ccccc1)c1ccc(-c2ccccc2)cc1	16.0%	14.1%
COC(=O)C1=C(C)NC(C)=C(C(=O)OCCN(C)Cc2ccccc2)C1c1cccc([N+](=O)[O-])c1 (stereo not given)	-11.7%	-15.1%[11.5 µM]
CC(=O)N(c1ccccc1)c1nc(CSc2nnc(C3CC3)n2Cc2ccccc2)cs1	84.9%[activator]	16.5%
CCc1cccc(NC(=O)CN2C(=O)COc3ccc(S(=O)(=O)Nc4ccccc4)cc32)c1	87.9%[activator]	-3.7%
Cc1cc(C(=O)CSc2nnc(C(C)Oc3ccc(F)cc3)o2)c(C)n1C1CC1 (stereo not given)	-11.8%	-14.3%
Cc1nn(-c2ccc3nnc(C)n3n2)c2c1C(c1ccc(O)cc1)CC(=O)N2 (stereo not given)	15.4%	3.9%
COc1ccccc1Nc1nc2c(S(=O)(=O)c3ccc(C(C)C)cc3)nnn2c2ccsc12	34.2%[activator]	-19.4%
Cc1ccc(C(=O)c2cn(Cc3cccc(Cl)c3)c3nc(C)ccc3c2=O)cc1	-3.8%	-18.8%

These rows are one share of the data; count on the stated rates, not on these rows.
